YopH PTP inh – inhibitors of Yersinia enterocolitica YopH tyrosine phosphatase. fluorescence Ex485/Em525. inhibition, %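 (about 10 µM by stock and volumes)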. 140,000 tested, 0.16% active. AID 898;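 active = inhibition of 50% or more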;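 note: controls were vehicle for no effect and minimum signal wells for full effect; inactives centre near -20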
RecA splice inh – inhibitors of M. tuberculosis RecA intein splicing; P9WHJ3; cell-free RecA intein splicing, fluorescence; inhibition, %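 (about 9 µM by stock and volumes)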; 290,000 tested, 0.75% active; AID 2221; in the data active = inhibition above about 30%;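 note: 0% = vehicle wells and 100% = reference inhibitor control wells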
Target sequence (P9WHJ3 whole entry, looked up, canonical isoform): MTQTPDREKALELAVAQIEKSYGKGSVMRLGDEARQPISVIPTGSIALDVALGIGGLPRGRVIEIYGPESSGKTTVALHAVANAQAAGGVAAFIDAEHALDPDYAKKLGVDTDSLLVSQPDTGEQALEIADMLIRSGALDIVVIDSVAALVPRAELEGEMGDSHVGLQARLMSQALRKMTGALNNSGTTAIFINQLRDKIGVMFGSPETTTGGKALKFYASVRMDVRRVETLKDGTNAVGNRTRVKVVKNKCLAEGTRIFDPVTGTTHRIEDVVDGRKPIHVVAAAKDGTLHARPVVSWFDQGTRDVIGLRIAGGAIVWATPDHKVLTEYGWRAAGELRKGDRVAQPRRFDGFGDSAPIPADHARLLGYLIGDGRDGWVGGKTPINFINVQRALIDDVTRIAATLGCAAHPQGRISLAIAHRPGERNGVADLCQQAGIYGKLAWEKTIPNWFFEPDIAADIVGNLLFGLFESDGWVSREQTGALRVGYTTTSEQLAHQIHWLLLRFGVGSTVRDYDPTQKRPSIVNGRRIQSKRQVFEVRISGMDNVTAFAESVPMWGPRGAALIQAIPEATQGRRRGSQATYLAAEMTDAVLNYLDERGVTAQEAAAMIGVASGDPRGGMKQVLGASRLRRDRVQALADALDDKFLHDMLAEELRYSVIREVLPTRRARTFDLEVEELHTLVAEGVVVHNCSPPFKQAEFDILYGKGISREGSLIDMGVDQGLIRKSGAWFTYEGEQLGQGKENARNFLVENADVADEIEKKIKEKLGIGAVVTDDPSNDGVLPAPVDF
Mtb bLac sens – beta-lactam sensitization of Mtb H37Rv. M. tuberculosis H37Rv growth with meropenem, percent inhibition; hits of this screen are not shown here. inhibition, % at 25 µM. 330,000 tested, 0.27% active. AID 434955;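 active = about 74% or more and at least 40 points above the plate without the antibiotic, then above 30% in a dose series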;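 note: growth measured after seven days incubation then overnight dye step; 0% = bacteria only wells and 100% = bacteria with antibiotic; twin plates without the antibiotic show which effects depend on it; some results filed as inactive read as strong as hits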
Mtb growth – M. tuberculosis H37Rv growth inhibitors, H37Rv strain (AID 1626); inhibition, % at 10 µM; hits with a dose series show IC50 in µM; 220,000 tested, 0.95% active; M. tuberculosis H37Rv growth inhibition; higher % means a stronger effect;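 active = confirmed in a dose series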;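 note: bacteria incubated seven days before Alamar blue readout; 0% = bacteria only wells and 100% = bacteria with antibiotic wells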
Arbovirus inh – antivirals against arbovirus infection. 200,000 tested, 0.37% active. AID 1251. inhibition, % at 10 µM. arbovirus infection cell-based antiviral screen;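 active = inhibition from about 30%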;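 note: bluetongue infection of BSR cells; cell survival read as ATP light after 72 h; 0% = infected wells without compound and 100% = uninfected wells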
Arbovirus inh repeat – also measured in Arbovirus inh; calls as there; inhibition, %; measured here: 10K subset replicate screen; many hits read low in the repeat;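 first of two repeat runs on a subset; 0% = infected and 100% = uninfected wells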
Numbers without * were called inactive. Some of the compounds tested. The share of hits here may be higher or lower than overall.

How did COc1ccc(CC(=O)NNC(=O)c2ccco2)cc1OC do in these assays?
RecA splice inh: 0.9; Mtb bLac sens: 0

What do the screens show for `COc1ccc2nc(NC(=O)CSC3=NCCS3)sc2c1`?
YopH PTP inh: -28; RecA splice inh: 4.1; Mtb bLac sens: 81; Mtb growth: -7%; Arbovirus inh: -23

How did COc1ccc(OC)c(NC(=O)C(=O)/C=C(\O)c2cc(OC)ccc2OC)c1 do in these assays?
YopH PTP inh: -28; Mtb bLac sens: 6; Mtb growth: 3%; Arbovirus inh: -3

How did NC(=S)N/N=C1\CC(c2ccc3c(c2)OCCCO3)Oc2ccc(F)cc21 (stereo not drawn) do in these assays?
RecA splice inh: 10; Mtb bLac sens: -14; Mtb growth: 4%

Results for CN(C)CCNc1nc2sc3c(c2c(=O)n1-c1ccccc1)CCCCC3 ?
RecA splice inh: 6.6; Mtb bLac sens: -6; Mtb growth: 6%

What do the screens show for `CC(C)C[C@H](NC(=O)C1CC(=O)N(c2ccc3c(c2)OCO3)C1)C(=O)NC1CCCC1` (stereo partly drawn)?
RecA splice inh: -2.0; Mtb bLac sens: -3

What do the screens show for `Nc1[nH]c(=O)[nH]c(=O)c1N=Nc1ccc(C(=O)O)cc1`?
RecA splice inh: 3.6; Mtb bLac sens: -3

What do the screens show for `Cc1c(Br)c([N+](=O)[O-])nn1C(C)C(=O)Nc1c(C)n(C)n(-c2ccccc2)c1=O` (stereo not drawn)?
YopH PTP inh: -19; RecA splice inh: 1.1; Mtb bLac sens: -3; Mtb growth: 1%; Arbovirus inh: 7

What do the screens show for `O=C(OCCNC(=O)c1cc2ccccc2oc1=O)c1cccnc1`?
YopH PTP inh: -12; RecA splice inh: -0.3; Mtb bLac sens: -8; Mtb growth: -6%; Arbovirus inh: 11

How did O=C(Nc1nnc(-c2ccc(Cl)cc2)o1)c1ccccc1Br do in these assays?
YopH PTP inh: -34; RecA splice inh: 1.4; Mtb bLac sens: 97; Mtb growth: 1.1µM*; Arbovirus inh: -7; Arbovirus inh repeat: -21

Results for CCCOc1ccc(N2C(=O)CC(N3CCN(S(=O)(=O)c4ccccc4)CC3)C2=O)cc1 (stereo not drawn) ?
YopH PTP inh: -19; RecA splice inh: 0.5; Mtb bLac sens: 5; Mtb growth: -2%; Arbovirus inh: 4

Results for Cn1c(=O)c2c(ncn2CC(COCc2ccccc2)OCc2ccccc2)n(C)c1=O (stereo not drawn) ?
RecA splice inh: 1.1; Mtb bLac sens: 0

What do the screens show for `CCOC(=O)c1cc(-c2cc(OC)c(OC)c(OC)c2)nc2c1c(=O)[nH]c(=O)n2Cc1ccccc1`?
RecA splice inh: -6.7; Mtb bLac sens: 12; Mtb growth: 4%; Arbovirus inh: 0

Results for COCCn1c(C)cc(C(=O)CSc2nc3ccccc3s2)c1C ?
YopH PTP inh: -33; RecA splice inh: 3.2; Mtb bLac sens: -9; Mtb growth: -2%; Arbovirus inh: 4

Results for O=C(Cc1cccs1)NCc1cccnc1 ?
YopH PTP inh: -18; RecA splice inh: 2.6; Mtb bLac sens: -4; Mtb growth: -9%; Arbovirus inh: 9

What do the screens show for `NNC(=O)COc1ncn(-c2ccccc2)n1`?
YopH PTP inh: -14; RecA splice inh: -1.2; Mtb bLac sens: 1; Mtb growth: -4%; Arbovirus inh: 7

What do the screens show for `O=C(NC1CC2CCC(C1)N2Cc1nnnn1Cc1ccco1)NC12CC3CC(CC(C3)C1)C2` (stereo not drawn)?
YopH PTP inh: -21; RecA splice inh: 1.9; Mtb bLac sens: 8; Mtb growth: -8%; Arbovirus inh: 2

How did Fc1ccc2[nH]c3c(N4CCSCC4)ncnc3c2c1 do in these assays?
YopH PTP inh: -34; RecA splice inh: -0.9; Mtb bLac sens: 11; Mtb growth: 0%; Arbovirus inh: 0

What do the screens show for `COc1ccc(NC(=O)COC(=O)[C@@H]2CCCN2C(=O)c2cccs2)c(OC)c1`?
YopH PTP inh: -24; RecA splice inh: 1.1; Mtb bLac sens: -26; Mtb growth: -6%; Arbovirus inh: 6

Results for COc1ccc(N2C(=O)C3CCCN3C2c2ccc(C)o2)cc1 (stereo not drawn) ?
RecA splice inh: -0.3; Mtb bLac sens: 4; Mtb growth: -3%; Arbovirus inh: 4

Results for CC1CN(c2nc(-c3ccccc3)nnc2-c2ccccc2)CC(C)O1 (stereo not drawn) ?
YopH PTP inh: -15; RecA splice inh: -3.3; Mtb bLac sens: 2; Mtb growth: 6%; Arbovirus inh: -11

Results for CCOc1ccc(C(=O)Nc2ccccc2C(=O)O)cc1 ?
Mtb bLac sens: 4; Mtb growth: 4%; Arbovirus inh: 23

What do the screens show for `Cc1ccc(N(CCC#N)C(=O)COC(=O)c2ccccc2SCC(=O)N2CCCC2)cc1`?
RecA splice inh: -2.9; Mtb bLac sens: -16

How did COC(=O)c1ccc(CSc2ccc3nnc(-c4ccccn4)n3n2)o1 do in these assays?
YopH PTP inh: -39; RecA splice inh: -1.4; Mtb bLac sens: -6; Mtb growth: 5%; Arbovirus inh: -1

What do the screens show for `O=C(Cn1cncn1)N1CCN(c2ccc(F)cc2)CC1`?
RecA splice inh: 0.1; Mtb bLac sens: 0; Mtb growth: 0%; Arbovirus inh: 0

How did O=C(CCN1CCCCC1)c1ccc2c(c1)OCCO2 do in these assays?
YopH PTP inh: -4; RecA splice inh: -1.1; Mtb bLac sens: 3; Mtb growth: -11%; Arbovirus inh: 14

Results for COCCNC(=O)CS(=O)Cc1nc(-c2ccccc2C)oc1C (stereo not drawn) ?
YopH PTP inh: -26; RecA splice inh: 1.8; Mtb bLac sens: -9; Mtb growth: 4%; Arbovirus inh: 4; Arbovirus inh repeat: 2

Results for NC(=O)N1OCC2COc3ccc4ccccc4c3C21 (stereo not drawn) ?
YopH PTP inh: -16; RecA splice inh: 4.0; Mtb bLac sens: -2; Mtb growth: -5%; Arbovirus inh: 6

How did Cc1ccc(Nc2nc(-c3cccnc3)cs2)cc1Cl do in these assays?
RecA splice inh: 1.7; Mtb bLac sens: 14

How did COc1ccc(NS(=O)(=O)c2ccc(C)c(C(=O)N3CC(C)OC(C)C3)c2)cc1 (stereo not drawn) do in these assays?
RecA splice inh: -0.8; Mtb bLac sens: -13

Results for COC(=O)C(Cc1ccccc1)NC(=O)CCNC(=O)c1ccc(Br)cc1 (stereo not drawn) ?
RecA splice inh: 1.3; Mtb bLac sens: -6

How did CCc1cc(=O)oc2cc(C)cc(OCC(=O)NCCCN3CCOCC3)c12 do in these assays?
RecA splice inh: -3.9; Mtb bLac sens: 8

What do the screens show for `Cc1ccc(S(=O)(=O)N2CCC(C(=O)N[C@@H](C)C(=O)NCC3CCCO3)CC2)cc1` (stereo partly drawn)?
YopH PTP inh: -23; RecA splice inh: -1.3; Mtb bLac sens: 10; Mtb growth: 0%; Arbovirus inh: 6; Arbovirus inh repeat: 2

What do the screens show for `COc1ccc(-c2noc(CCN3C(=O)c4ccccc4C3=O)n2)cc1OC`?
YopH PTP inh: -35; RecA splice inh: -0.5; Mtb bLac sens: -5; Mtb growth: -5%; Arbovirus inh: 1

How did COc1ccc(-c2nn(-c3ccccc3)cc2CN2CCCO2)c(F)c1 do in these assays?
RecA splice inh: 1.6; Mtb bLac sens: 10; Mtb growth: 11%; Arbovirus inh: 2

How did CC(=O)Nc1ccc(OCC(=O)c2cc(C)ccc2C)cc1 do in these assays?
YopH PTP inh: -8; RecA splice inh: 7.0; Mtb bLac sens: -8; Mtb growth: -8%; Arbovirus inh: 5

What do the screens show for `Cc1cccc(/N=C/c2nc(-c3ccccc3Br)oc2O)n1`?
RecA splice inh: 7.7; Mtb bLac sens: 5; Mtb growth: -2%; Arbovirus inh: 5

How did Cc1ccc(C(=O)CNc2ccccc2)cc1 do in these assays?
RecA splice inh: 3.1; Mtb bLac sens: 0

Results for N#Cc1ccccc1NC(=O)CSC1=Nc2ccccc2C2CC=NN12 (stereo not drawn) ?
Mtb bLac sens: 65; Mtb growth: -7%; Arbovirus inh: 3

How did Cc1ccc2c(=O)c(C(=O)c3ccc(F)cc3)cn(CC(=O)NCc3ccco3)c2n1 do in these assays?
RecA splice inh: -4.1; Mtb bLac sens: -1

5 compounds out of the list, ordered by heavy-atom count, ascending:
How did Cc1ccc(C(=O)CNc2ccccc2)cc1 do in these assays?
RecA splice inh: 3.1; Mtb bLac sens: 0

Results for NC(=O)N1OCC2COc3ccc4ccccc4c3C21 (stereo not drawn) ?
YopH PTP inh: -16; RecA splice inh: 4.0; Mtb bLac sens: -2; Mtb growth: -5%; Arbovirus inh: 6

What do the screens show for `Cc1cccc(/N=C/c2nc(-c3ccccc3Br)oc2O)n1`?
RecA splice inh: 7.7; Mtb bLac sens: 5; Mtb growth: -2%; Arbovirus inh: 5

How did COc1ccc(-c2nn(-c3ccccc3)cc2CN2CCCO2)c(F)c1 do in these assays?
RecA splice inh: 1.6; Mtb bLac sens: 10; Mtb growth: 11%; Arbovirus inh: 2

How did COc1ccc(NS(=O)(=O)c2ccc(C)c(C(=O)N3CC(C)OC(C)C3)c2)cc1 (stereo not drawn) do in these assays?
RecA splice inh: -0.8; Mtb bLac sens: -13

Random excerpt: 2 entries already listed
Results for COCCNC(=O)CS(=O)Cc1nc(-c2ccccc2C)oc1C (stereo not drawn) ?
YopH PTP inh: -26; RecA splice inh: 1.8; Mtb bLac sens: -9; Mtb growth: 4%; Arbovirus inh: 4; Arbovirus inh repeat: 2

How did COC(=O)c1ccc(CSc2ccc3nnc(-c4ccccn4)n3n2)o1 do in these assays?
YopH PTP inh: -39; RecA splice inh: -1.4; Mtb bLac sens: -6; Mtb growth: 5%; Arbovirus inh: -1

Carrying on.
How did CCN(CC)c1ccc(N=Cc2c(O)n(-c3cc(OC)ccc3OC)c(=O)[nH]c2=O)cc1 do in these assays?
YopH PTP inh: -18; RecA splice inh: -11; Mtb bLac sens: 3; Mtb growth: -7%; Arbovirus inh: -10

Results for COc1ccc(C(=O)Nc2ccc(Cl)cc2C(=O)NCCO)cc1 ?
YopH PTP inh: -2; RecA splice inh: 4.3; Mtb bLac sens: -1; Mtb growth: 3%; Arbovirus inh: 1

Results for Cc1ccc(NC(=S)/N=C(\N)Nc2nc(C)c3cc(C)ccc3n2)c(C)c1 ?
YopH PTP inh: -21; RecA splice inh: -1.6; Mtb bLac sens: 1; Mtb growth: 12%; Arbovirus inh: 0

What do the screens show for `CCn1c(SCC(=O)c2ccc(C)cc2)nnc1-c1ccncc1`?
YopH PTP inh: -17; RecA splice inh: -2.6; Mtb bLac sens: -4; Mtb growth: 2%; Arbovirus inh: -1

Results for N=C1C(c2ccccc2)=C(O)CN1c1ccccc1 ?
RecA splice inh: 1.3; Mtb bLac sens: 3; Mtb growth: -2%; Arbovirus inh: 6

How did Cc1ccc(-c2nc(CN(Cc3cnn(C)c3)C(C)C)c(C)o2)o1 do in these assays?
RecA splice inh: 2.6; Mtb bLac sens: 2; Mtb growth: 8%; Arbovirus inh: 2

Results for CC(=O)Nc1cccc(-c2nnc(SCC(=O)N3CCCCC3)n2C)c1 ?
YopH PTP inh: -34; RecA splice inh: -0.1; Mtb bLac sens: 4; Mtb growth: -4%; Arbovirus inh: -3

How did CCOC(=O)Cc1csc(NS(=O)(=O)c2ccc(Br)cc2)n1 do in these assays?
RecA splice inh: 0.3; Mtb bLac sens: 2; Mtb growth: -3%; Arbovirus inh: 1

What do the screens show for `CC1(C)OC(=O)C(=NNc2ccccc2[N+](=O)[O-])C(=O)O1`?
RecA splice inh: -1.2; Mtb bLac sens: -4; Mtb growth: -6%

How did Cc1ccc(Cc2nnc(SCC(=O)Nc3ccc(C)cc3C)[nH]c2=O)cc1 do in these assays?
RecA splice inh: -2.6; Mtb bLac sens: -4

Results for O=C(NCc1cccs1)c1cc2c(s1)CS(=O)(=O)C2 ?
YopH PTP inh: -9; RecA splice inh: 6.6; Mtb bLac sens: 3; Mtb growth: -12%; Arbovirus inh: 9

What do the screens show for `CCC(=O)Nc1cccc(NC(=O)c2ccc3c(c2)OCCO3)c1`?
RecA splice inh: 1.4; Mtb bLac sens: 12; Mtb growth: 27%; Arbovirus inh: -7

How did O=C(c1ccc(Cl)c(S(=O)(=O)N2CCc3ccccc3C2)c1)N1CCN(c2ccccc2)CC1 do in these assays?
YopH PTP inh: -16; RecA splice inh: -0.3; Mtb bLac sens: -9; Arbovirus inh: 24

How did CC(=O)Nc1cccc(CNCc2cccc(NC(C)=O)c2)c1 do in these assays?
RecA splice inh: -0.1; Mtb bLac sens: 5; Mtb growth: -2%; Arbovirus inh: 9

How did Cc1cc(OCC(=O)N(Cc2ccco2)C2CCS(=O)(=O)C2)ccc1Cl (stereo not drawn) do in these assays?
RecA splice inh: -2.0; Mtb bLac sens: -10; Mtb growth: -8%

Results for Cc1ccc2c(c1)c(=O)c1c3n2CCN(CC2CO2)C3CC1 (stereo not drawn) ?
RecA splice inh: -2.0; Mtb bLac sens: 4; Mtb growth: -2%; Arbovirus inh: 1

Results for COc1cccc(/C=C/C(=O)Nc2ccc3c(c2)OCCO3)c1 ?
RecA splice inh: 4.5; Mtb bLac sens: 1; Mtb growth: 57%; Arbovirus inh: 6
